S aureus helic: blocks Staphylococcus aureus DNA helicase; purified S. aureus helicase, fluorescence unwinding assay; about half of the hits fall short of the stated cut; inhibition, %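 (tested at about 80 µM)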; 120,000 compounds, 0.05% hits; AID 485395;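 active = both duplicates at 50% or more, or one of them with a favoured structure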;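 also: 0% = mean of negative control wells and 100% = mean of positive control wells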
MgrA DNA FP: S. aureus MgrA-DNA binding modulation | inhibition, %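 (about 10 µg/mL by stock and volumes)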 | fluorescence polarization | 84,000 compounds, 0.13% hits;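 active = above 50% in either of two replicates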;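 also: 0% = protein plus DNA without compound and 100% = DNA alone without protein; higher means less MgrA bound to DNA so lower polarization; one replicate is shown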
* hit, by the source's call; nt = not tested or not shown. An excerpt; rates above refer to the full screens.

No.	Molecule	S aureus helic	MgrA DNA FP
1	COc1ccccc1OCCOc1c(Cl)cc(C=C2C(=O)NC(=O)NC2=O)cc1OC	nt	3.9
2	Cc1nn(Cc2nnc(SCc3cccc(C(F)(F)F)c3)o2)c(C)c1Br	4	nt
3	CC(C)(C)NS(=O)(=O)c1ccc(Cl)c(Cl)c1	nt	0.1
4	O=C(CCc1nc2ccccc2s1)OCc1nc2ccccc2s1	-9	nt
5	COc1ccccc1NC(=O)C1=C(C)NC2=C(C(=O)CC(c3ccc(OC)c(OC)c3)C2)C1c1ccc(C)o1 (stereo not drawn)	-35	nt
6	O=C(Nc1ccc2c(c1)OCO2)C1c2ccccc2Oc2ccccc21	4	-0.6
7	O=C(COn1nnc2ccc(Cl)cc21)NC1CCCc2ccccc21 (stereo not drawn)	9	nt
8	O=S(c1ccc(Cl)cc1)c1ccc(-c2ccccn2)s1 (stereo not drawn)	nt	4.3
9	COC(=O)c1sc(-c2ccc(C(C)(C)C)cc2)cc1N	nt	-2.0
10	O=C(/C=C/c1ccccc1)NC(=S)Nc1ccc(C(F)(F)F)cc1	nt	-0.2
11	Cc1ccc2cccc(S(=O)(=O)Nc3ccc4c(c3)OCO4)c2n1	-18	nt
12	CC(C)Nc1nc2c(S(=O)(=O)c3ccccc3)nnn2c2ccsc12	27	nt
13	Cc1coc2cc3oc(=O)c(CC(=O)O)c(C)c3cc12	9	14
14	Cc1ccc(C(=O)Nc2ncc(Cl)cn2)cc1	nt	0.0
15	COc1ccc(C(=O)N2CCCC(C(=O)N3CCCCCC3)C2)cc1 (stereo not drawn)	-1	0.6
16	CN(C)C(=O)COc1ccc(Oc2ccccc2)cc1	2	1.8
17	O=C(N/N=C1/C(=O)c2cccc3cccc1c23)c1ccc(O)cc1	6	nt
18	COc1ccc(-c2n[nH]c(=S)o2)cc1OC	-15	0.7
19	Cc1ccc(C2Nn3c(nnc3-c3ccccc3)SC2C(=O)NCC2CCCO2)cc1 (stereo not drawn)	4	-1.0
20	N#C/C(=C\c1ccc(-c2ccc(F)cc2)o1)C(=O)NCCc1ccccc1	-11	nt
21	O=C(Nc1ccccc1Br)c1ccc2c(c1)N(Cc1ccc(F)cc1)C(=O)CS2=O (stereo not drawn)	7	-1.9
22	O=C1c2ccccc2C(=O)C1(CCO)c1ccccc1	4	-0.8
23	O=C(O)C1CCCN1C(=O)Cc1ccccc1 (stereo not drawn)	6	-0.6
24	CC(C)(C)N1C(=O)NC(=O)/C(=C\c2ccc(N3CCCC3)cc2)C1=O	-24	20
25	O=C(CCCOc1ccc(Cl)cc1Cl)Nc1ccc2c(c1)OCCO2	4	-1.4
26	CC1CN(C(=O)/C=C/c2cn(-c3ccccc3)nc2-c2ccc(Cl)cc2)CC(C)O1 (stereo not drawn)	5	0.3
27	CCOc1ccc2nc(N3CCCC(C(=O)NCCC(C)C)C3)sc2c1 (stereo not drawn)	-21	nt
28	CCS(=O)(=O)NCCc1csc(-c2ccc(OC)c(OC)c2)n1	11	nt
29	O=S1(=O)CCC(S(=O)(=O)NCc2ccccc2)C1 (stereo not drawn)	nt	-2.1
30	Cc1ccc2nc(Cl)sc2c1	3	nt

Individual results from the results shown.
Result of compound 26 in MgrA DNA FP: 0.3
Result of compound 23 in S aureus helic: 6
Result of compound 25 in S aureus helic: 4
Result of compound 22 in S aureus helic: 4

(continued)
No.	Molecule	S aureus helic	MgrA DNA FP
31	Cc1nn2c(C(F)(F)F)cc(-c3ccc(Cl)cc3)nc2c1C(=O)Nc1c(C)n(C)n(-c2ccccc2)c1=O	nt	4.5
32	O=C(OCC1CCNCC1)c1ccc(F)cc1	-20	2.0
33	C=CCn1c(-c2ccncc2)nn(CN(C)CCc2ccc(OC)c(OC)c2)c1=S	7	nt
34	O=C(NCc1ccccn1)C1CCN(c2nc3ccccc3n2Cc2ccccc2F)CC1	0	nt
35	COc1cc(C)ccc1S(=O)(=O)n1cnc2cc(C)c(C)cc21	5	nt
36	CCSc1sc(CC)cc1C1C(C(=O)Nc2cccnc2)=C(C)NC2=C1C(=O)CCC2 (stereo not drawn)	8	0.8
37	O=C(Cc1cccs1)NCC1(N2CCCCC2)CCCCC1	-7	nt
38	OCC[n+]1ccc(/C=C/c2c[nH]c3ccccc23)cc1	-94	22
39	CCC(C)Nc1nc(NC(C)C)nc(Oc2ccc(C(=O)OC(C)C(=O)OC)cc2)n1 (stereo not drawn)	-12	nt
40	Cn1c(=O)c2c(nc(NCCOCCO)n2Cc2ccc(Br)cc2)n(C)c1=O	nt	1.0
41	Cc1nc(N=CNO)ccc1Br	nt	0.1
42	CN(C)CCP(=O)(c1ccccc1)c1ccccc1	9	-0.8
43	O=C1NC(=S)N/C1=C/c1cccc(Oc2ccc([N+](=O)[O-])cc2[N+](=O)[O-])c1	nt	-9.4
44	COc1ccc(Br)cc1CNC(=O)CCc1nc(-c2ccccc2F)no1	1	nt
45	CCn1c(SCc2ccc(Cl)cc2)nnc1C(C)C	3	-3.2
46	CCc1ccccc1NS(=O)(=O)c1ccc2[nH]cc(C(=O)NCc3cccnc3)c(=O)c2c1	15	nt
47	CCN(CC)C(=O)Sc1nc2ccccc2c(=O)n1CC1CC1	nt	-5.0
48	CCc1ccc(C(=O)CSc2ncn[nH]2)cc1	-5	nt
49	CC1CCC(C(C)C)C(OCC(O)CN2CCCCC2)C1 (stereo not drawn)	-20	nt
50	Cc1ccc(/C=C/C(=O)OCC(=O)Nc2ccc3c(c2)CCC3)o1	1	nt
51	O=C(NC(=O)N1CCCC1)c1csnn1	nt	-0.4
52	COc1ccc(CN(C)CC(=O)Nc2ccccc2C(=O)NC2CC2)cc1F	6	nt
53	Cn1c2ccccc2c2nn3c(=S)[nH]nc3nc21	20	nt
54	CC(C)c1ccc(Nc2nc3cccnc3s2)cc1	nt	-1.1
55	O=S(=O)(c1cccc(S(=O)(=O)N2CCOCC2)c1)N1CCCCCC1	8	-1.1
56	CSc1nc2ccccc2s1	-21	nt
57	CN(C(=O)c1cc(-c2ccccc2)on1)C1CCCCC1	2	-3.6
58	COC(=O)CCC(=O)Nc1ccc(C)cc1	nt	2.3
59	N#CCCN(/N=C/c1ccccc1)C1=NS(=O)(=O)c2ccccc21	5	2.2
60	O=C(c1ccccc1F)N1CCC(n2nc(-c3ccccc3)oc2=O)CC1	-9	nt
61	CCOC(=O)c1ccc(N2CCOCC2)c(N=Cc2cc(Cl)cc(Cl)c2O)c1	nt	0.9
62	Cc1ccc(NC(=O)C(C)N(C)Cc2ccccc2)cc1 (stereo not drawn)	-11	nt
63	COc1cccc(S(=O)(=O)N2CCOCC2)c1	12	2.8
64	Cc1cc(-c2ccc(S(=O)(=O)NCc3ccccn3)s2)on1	8	nt
65	COc1ccc(CN2CCc3ccccc3C2)cc1	12	-3.7
66	CCNS(=O)(=O)c1ccc(F)cc1	17	nt
67	C=CCN(CC=C)C(=S)Nc1ccc(S(=O)(=O)N2CCOCC2)cc1	-20	nt
68	COc1ccc(NC(=O)c2ccccc2OC)cc1OC	nt	1.6
69	CN(C)c1ccc(C2NCC(CSc3nc4ccccc4s3)O2)cc1 (stereo not drawn)	5	-2.2
70	COC(=O)c1ccc(S(=O)(=O)NNc2c(Cl)cncc2Cl)n1C	-2	nt

Next section (6 carried over from the part before).
No.	Molecule	S aureus helic	MgrA DNA FP
65	COc1ccc(CN2CCc3ccccc3C2)cc1	12	-3.7
66	CCNS(=O)(=O)c1ccc(F)cc1	17	nt
67	C=CCN(CC=C)C(=S)Nc1ccc(S(=O)(=O)N2CCOCC2)cc1	-20	nt
68	COc1ccc(NC(=O)c2ccccc2OC)cc1OC	nt	1.6
69	CN(C)c1ccc(C2NCC(CSc3nc4ccccc4s3)O2)cc1 (stereo not drawn)	5	-2.2
70	COC(=O)c1ccc(S(=O)(=O)NNc2c(Cl)cncc2Cl)n1C	-2	nt
71	Cc1ccc(-c2noc(CN(C(=O)CCc3ccccc3)C(C)C)n2)cc1	-12	-1.2
72	O=S(=O)(c1ccc(-n2cccn2)cc1)N1CCCC2CCCCC21 (stereo not drawn)	10	2.9
73	COc1cc(-c2cc(NC(=O)Cc3noc4ccc(C)cc34)on2)cc(OC)c1OC	5	1.4
74	COC(=O)C(c1ccccc1)C1(O)CC(C)N(C)CC1C (stereo not drawn)	-12	0.6
75	O=C1CC(c2ccccc2)c2c(ccc3ccccc23)N1 (stereo not drawn)	1	0.9
76	COc1ccc(OC)c(/C=C2/C(=O)Nc3ccccc32)c1	nt	0.3
77	Cc1nn(CCC#N)c(C)c1Cc1c(Cl)cccc1Cl	nt	0.2
78	COc1ccc(C(=O)Nc2nnc(-c3ccccc3)o2)cc1OC	-22	1.5
79	C=CCn1c(CNC(=O)OC(C)(C)C)n[nH]c1=S	nt	-2.0
80	C=CCn1c2ccccc2c2nnc(SCC(=O)OCN3C(=O)c4ccccc4C3=O)nc21	-33	nt
81	COc1ccc(CCNC(=O)c2ccc(OC)cc2)cc1	16	3.0
82	CCc1nn(CC(=O)NCc2ccc(OC)c(OC)c2)c(=O)c2cc3occc3n12	-3	nt
83	O=C(CCn1c(=O)c2cccn2c2ccccc21)Nc1ccccc1F	27	nt
84	NC(=O)SCC(=O)Nc1ccc(Cl)cc1Cl	13	-6.9
85	COc1ccc(OC)c(S(=O)(=O)N2CCCc3ccccc32)c1	7	2.2
86	CCCc1cc(=O)[nH]c(/N=C(\N)Nc2cc(Cl)ccc2OC)n1	2	1.9
87	CSc1nnc(-c2ccc(S(=O)(=O)N3CCCC3)cc2)n1C	7	-2.4
88	CC1CCC2C(=O)N(CNc3ccc(Oc4ccc(Br)cc4)cc3)C(=O)C2C1 (stereo not drawn)	nt	-1.7
89	Cc1cccc(N2CCN(C(=O)CCn3c(=S)[nH]c4cc5c(cc4c3=O)OCO5)CC2)c1C	15	-0.5
90	Cc1ccccc1C(=O)Nc1ccc2nc(NC(=O)c3ccccc3C)sc2c1	nt	-1.2
91	CCC(=O)N1c2ccc(S(=O)(=O)NCc3ccccc3)cc2CC1C (stereo not drawn)	2	1.1
92	CNC(=S)N1CCN(c2ccc(Cl)c(Cl)c2)CC1	24	0.3
93	CCOC(=O)N1CCC2(CC1)OC(=O)C(C)=C2C(=O)NCc1ccccc1	16	nt
94	O=C(NC1CCCC1)C1CCN(S(=O)(=O)c2cccc3nonc23)CC1	10	0.1
95	CCN(CC)S(=O)(=O)c1ccc2c(c1)nc(SC1CCOC1=O)n2CC (stereo not drawn)	6	nt
96	CC(C)(C)OC(=O)NC1CCN(c2ncc(C(F)(F)F)cc2Cl)CC1	nt	2.8
97	Cc1ccc(C2=Nn3c(C)nnc3SC2)cc1	2	nt
98	CCOC(=O)C1CCCN(C(=S)Nc2ccc(OCC)cc2)C1 (stereo not drawn)	15	0.2
99	COC(=O)c1ccc(CSc2nnnn2Cc2ccccc2)cc1	7	1.2
100	Cn1c(=NC(=O)CSCC(=O)N2CCCc3ccccc32)sc2ccccc21	9	-1.2
101	CC(NC(=O)c1cccc(N)c1)c1ccccc1 (stereo not drawn)	1	-2.1
102	COc1ccc(NS(=O)(=O)c2cc(Br)cnc2N)cc1	12	0.5
103	COc1cc2ncnc(Nc3ccccc3)c2cc1OC	-3	nt
104	O=c1cc(C(F)(F)F)[nH]c(=S)[nH]1	-4	nt
105	O=C1C2C(C(=O)C3C1C1C=CC3C13CC3)C1C=CC2C12CC2 (stereo not drawn)	-5	-0.6
106	O=C(Cc1c(O)c2ccccc2oc1=O)c1ccc(C(F)(F)F)cc1	nt	-1.4
107	O=C(Sc1cccc2cccnc12)N1CCOCC1	5	-3.1
108	COCCOC(=O)c1c(NC(=O)COC(=O)[C@@H]2CCCN2S(C)(=O)=O)sc(C(N)=O)c1C	-5	nt
109	CC1CCCC(C)N1CCCNC(=O)c1csc2c1CCCC2 (stereo not drawn)	6	nt
110	CC(C)CC(=O)Nc1cccc(-c2cn3ccsc3n2)c1	12	nt
111	CC(C)=NOC(=O)Nc1ccc(C(F)(F)F)cc1	nt	4.0
112	O=C(NCC1CCCO1)c1nn(-c2ccc(Cl)cc2)nc1CO (stereo not drawn)	-24	nt
113	COC(=O)Nc1c(Cl)nsc1S(=O)(=O)Cc1ccccc1	0	0.7
114	O=C(Cn1cnc2ccccc21)NN=C1C2CC3CC(C2)CC1C3	-9	nt
115	CN(C)c1ccc(C(=O)OCC(=O)c2cccc(C(F)(F)F)c2)cc1	17	0.6
116	N#CC1(C#N)C2C=CC(C2)C1(C#N)C#N	-13	nt
117	CC(C)C(C(=O)Nc1nccs1)c1ccc(Cl)cc1 (stereo not drawn)	-1	-0.7
118	COc1ccccc1NC(=O)c1cccn(OCc2ccccc2)c1=O	-7	nt
119	NC(=O)c1ccc(Oc2ccc(C(N)=O)cc2)cc1	17	nt
120	CC(C)NC(=O)NC(=O)c1ccccc1	21	1.6

Continued.
No.	Molecule	S aureus helic	MgrA DNA FP
121	Cc1cc2cc(CNC(=O)CC(C)C)ccc2[nH]1	7	nt
122	Cc1cccc(OCCCC(=O)N2CCN(S(=O)(=O)c3ccc4c(c3)OCCO4)CC2)c1	-1	nt
123	Nc1ccc(Oc2cc(C(F)(F)F)cc(C(F)(F)F)c2)cc1	nt	-0.8
124	N#C/C=C/N1CCC(CCCC2CCN(/C=C/C#N)CC2)CC1	5	nt
125	CN(C)c1ccc(C(=O)Nc2ccccc2N2CCOCC2)cc1	nt	0.2
126	O=C(CN1C(=O)c2ccccc2C1=O)OCc1ccccc1	3	1.1
127	CCC(C)OC(=O)C1=C(C)NC(=O)NC1c1cc(Br)c(O)c(OC)c1 (stereo not drawn)	nt	-2.3
128	Cn1cccc1/C=N/n1c(COc2ccccc2)n[nH]c1=S	14	3.0

Exported in transposed form: part of the list above
100	Cn1c(=NC(=O)CSCC(=O)N2CCCc3ccccc32)sc2ccccc21
62	Cc1ccc(NC(=O)C(C)N(C)Cc2ccccc2)cc1 (stereo not drawn)
74	COC(=O)C(c1ccccc1)C1(O)CC(C)N(C)CC1C (stereo not drawn)

Assay by compound | 100 | 62 | 74
S aureus helic | 9 | -11 | -12
MgrA DNA FP | -1.2 | nt | 0.6
